Screening data: PubChem BioAssay, National Center for Advancing Translational Sciences (NCATS)
gsp antag – qHTS for Antagonists of gsp, the Etiologic Mutation Responsible for Fibrous Dysplasia/McCune-Albright Syndrome: qHTS. gsp-mutant cells, cAMP HTRF, 30 min; control for the full effect not named in the record. Potency, µM (highest dose often 76.9 µM), for inactives: at the top dose activity change, negative = inhibition, most hits filed as inhibitors. 340,000 compounds, 0.4% hits; active = falling curve of any shape with a large fitted effect; inconclusive = falling curve, mostly with a smaller effect; inactive = flat or rising curve; cell line not stated here;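 note: intracellular cAMP measured with PDE inhibitor Ro 20-1724 present during compound exposure; potency is the fitted concentration of half-maximal effect; % is set by controls: 0 for no effect and ±100 for the full control effect; nearly all actives have a fitted effect of over 65% in size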
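Measurement of cellular cAMP by homogeneous time-resolved fluorescence following a 30 min compound exposure at 37C. The PDE inhibitor […] was present throughout; the assay buffer was DPBS with 0.05% BSA and 0.005% Tween 20.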
ClpP mod – qHTS Assay for Activators of ClpP. 340,000 compounds, 1.9% hits. AID 651965, 2013. purified B. subtilis ClpP, FRET peptide cleavage, 20 min. ATP-dependent Clp protease proteolytic subunit (Bacillus subtilis (strain 168)), P80244. Potency, µM (highest dose often 57.5 µM), inactives show top-dose activity change, negative = active; active = well fitted falling curve with a large enough effect; inconclusive = small, poorly fitted or top-dose-only effect; inactive = no such curve, though single readings can be large or run the other way; note: potency is the fitted concentration of half-maximal effect; the source files actives as falling curves though it sought activators and does not explain the sign; nearly all actives have a fitted effect of over 65% in size; many hits overshoot -100%
Target sequence (P80244 whole entry, looked up): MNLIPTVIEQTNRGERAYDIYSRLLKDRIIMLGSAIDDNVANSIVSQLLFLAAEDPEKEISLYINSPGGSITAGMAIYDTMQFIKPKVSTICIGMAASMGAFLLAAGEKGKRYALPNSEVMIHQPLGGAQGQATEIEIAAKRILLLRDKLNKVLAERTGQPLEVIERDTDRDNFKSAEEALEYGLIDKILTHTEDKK
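Buffer: 100 mM Tris/HCl pH8, 100 mM KCl, 0.05% low protease BSA, 2.5% glycerol, 0.01% Tween-20. ClpP 10 microg/mL final; 20 min RT; delta FRET normalized to ADEP and DMSO controls.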
CtBP-E1A inh – qHTS Assay for Inhibitors of the CtBP/E1A Interaction; AlphaScreen GST-E1A/His-CtBP binding, 1536-well; active compounds read low; control for the full effect not named in the record; activity change, % (no concentration beside the values); 340,000 compounds, 0.49% hits; AID 651724, 2012; in the data active means activity change below about -65%; inconclusive means about -30% to -65%; inactive means above about -30%; note: % is set by controls: 0 for no effect and ±100 for the full control effect
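Protein mix (5X: 125 nM each GST-E1A, His-CtBP) was incubated with pinned compound 2 h at 37 deg C in dark, in 50 mM Tris pH 8.0 buffer with 300 mM NaCl. Glutathione donor and nickel acceptor beads followed; AlphaScreen signal read after 1 h.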
Sfp inh – qHTS Assay for Inhibitors of Bacillus subtilis Sfp phosphopantetheinyl transferase (PPTase); Biochemical Sfp PPTase activity, qHTS; Potency, µM, for the others: max response, negative = inhibition, hits mostly inhibitors; 310,000 compounds, 3.5% hits; active = well fitted inhibition curve with a large enough effect; inconclusive = small, poorly fitted or top-dose-only effect, or another doubt; inactive = no such curve, though single readings can be large or run the other way;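 note: the enzyme is Sfp with the accession as filed and its product quenches rhodamine fluorescence; potency is the fitted concentration of half-maximal effect; 0% = enzyme reaction without inhibitor and -100% = no enzyme wells; top concentration of the series not given in the record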
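Buffer: 50 mM Hepes-Na pH 7.6, 10 mM MgCl2, 0.01% Nonidet P-40, 0.01% BSA. Enzyme 15 nM, pre-exposed to compound 15 min; substrates then added and fluorescence change tracked over 30 min.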
gsp agonist – qHTS for Agonist of gsp, the Etiologic Mutation Responsible for Fibrous Dysplasia/McCune-Albright Syndrome: qHTS; gsp mutant cells, cAMP HTRF, 30 min; control for the full effect not named in the record; Potency, µM (top dose mostly 76.9 µM), for the others: at the top dose activation (cAMP increase), usual class: activators; 340,000 compounds, 0.13% hits; active = well fitted activation curve with a large enough effect; inconclusive = small, poorly fitted or top-dose-only effect, or another doubt; inactive = no such curve, though single readings can be large or run the other way; cell line not stated here;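 note: phosphodiesterase inhibitor Ro 20-1724 added with compounds to block cAMP breakdown; potency is the fitted concentration of half-maximal effect; nearly all actives have a fitted effect of over 60% in size; about a fifth of the inactives were tested at one dose only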
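Cells in DMEM/10% FBS with G418 were pretreated with compounds in DMSO plus […] (300 uM stock) for 30 min at 37C. cAMP was measured by HTRF (cAMP-d2 plus anti-cAMP antibody-K) after 30 min at room temperature.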
Menin-MLL FL inh – qHTS Assay for Inhibitors Targeting the Menin-MLL Interaction in MLL Related Leukemias: Competition With Fluorescein Labeled MLL-derived Peptide. Fluorescence polarization, fluorescein-MLL peptide displacement from menin. FP activity change, % at 61.4 µM. 290,000 tested, under 10 active; inconclusive = falling polarisation curve, or a change in total fluorescence; inactive = total fluorescence flat and polarisation flat or rising; no compound was filed as active; the % refers to the polarisation; negative = inhibition;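 note: % of control where 0% means no effect; inhibitors lower the polarisation; unlabelled MLL peptide was the positive control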
TRPV1 PAM – HTS Assay for Compounds that Act as Potentiators of the Vanilloid Receptor 1 | Transient receptor potential cation channel subfamily V member 1 (Homo sapiens), Q8NER1 | TRPV1-expressing cells, Fluo-8 calcium influx, capsaicin EC20 potentiation; host cell line not named in the record; control for the full effect not named in the record | potentiation, % at 8.33 µM | 320,000 compounds, 0.02% hits | AID 540277, 2011; active means potentiation above 80%; inconclusive means 30% to 80%; inactive means below 30%; note: 0% is about no effect
Target sequence (Q8NER1 whole entry, looked up): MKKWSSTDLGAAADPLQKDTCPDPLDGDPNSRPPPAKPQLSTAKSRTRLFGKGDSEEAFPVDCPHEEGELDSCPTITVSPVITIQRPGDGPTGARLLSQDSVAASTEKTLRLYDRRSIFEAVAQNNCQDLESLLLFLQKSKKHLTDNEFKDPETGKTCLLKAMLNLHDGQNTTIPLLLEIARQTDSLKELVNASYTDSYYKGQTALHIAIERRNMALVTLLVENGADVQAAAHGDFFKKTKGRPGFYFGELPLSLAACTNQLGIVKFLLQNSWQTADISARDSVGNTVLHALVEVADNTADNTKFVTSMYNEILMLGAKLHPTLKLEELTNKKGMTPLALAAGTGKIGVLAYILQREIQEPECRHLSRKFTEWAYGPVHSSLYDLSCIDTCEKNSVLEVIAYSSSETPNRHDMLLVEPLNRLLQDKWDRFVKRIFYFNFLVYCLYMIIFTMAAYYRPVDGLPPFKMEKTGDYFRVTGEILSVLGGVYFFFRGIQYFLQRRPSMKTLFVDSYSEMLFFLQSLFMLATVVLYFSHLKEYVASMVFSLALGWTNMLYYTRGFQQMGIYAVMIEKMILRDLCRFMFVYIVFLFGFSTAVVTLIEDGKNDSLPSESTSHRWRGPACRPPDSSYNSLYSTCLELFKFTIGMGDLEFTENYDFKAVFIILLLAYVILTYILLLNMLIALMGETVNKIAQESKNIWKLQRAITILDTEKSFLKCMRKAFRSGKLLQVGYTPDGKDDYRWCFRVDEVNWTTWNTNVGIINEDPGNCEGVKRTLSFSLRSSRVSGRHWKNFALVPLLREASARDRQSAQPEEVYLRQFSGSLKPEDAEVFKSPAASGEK
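Cells expressing TRPV1 were dye-loaded with Fluo-8 and read kinetically: 10 s baseline, 3 min after compound (agonist portion), then 2 min after EC20 capsaicin (allosteric enhancer portion). Calcium-bound dye fluorescence at 480/520 nm.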
* = called active by the depositor; ? = inconclusive; nt = no result given; [ ] = dose if it differs, or a comment.

SMILES	CtBP-E1A inh	ClpP mod	Menin-MLL FL inh	gsp agonist	gsp antag	Sfp inh	TRPV1 PAM
Cc1ccc(SCC(=O)OC(C)C(=O)NCc2ccccc2)cc1 (stereo not given)	3	1.3%	nt	-7%	4%	nt	-25
CC1(C)NC(=O)NC2(C)NC(=O)NC(C)(C)C12 (stereo not given)	1	-1.4%	3.2	2%	-3%	13%	10
O=C(Cc1ccccc1)NC1CCN(Cc2ccccc2)CC1	-2	nt	0.0	-7%[15.4 µM]	1%	19%	-5
Cn1c(=O)c(=O)n(C)c2cc(S(=O)(=O)N3CCN(Cc4ccccc4)CC3)ccc21	3	-19%	2.7	?	2%	19%	-7
CC(=O)N1CCN(S(=O)(=O)c2ccc(Cl)cc2F)CC1	-1	-1.7%	2.2	4%[15.4 µM]	4%	17%	-2
Cc1ccc(NC(=S)N2CCC(NC(=O)c3ccc(F)cc3)CC2)cc1	1	nt	-5.3	9%	-8%	7%	2
C=CCN1CCCC1CNC(=O)c1cc2[nH]nnc2cc1OC (stereo not given)	-23	4.6%	nt	nt	-9%	nt	7
CN(CC(=O)Nc1ccc(F)c(F)c1F)C(=O)c1ccc2c(c1)OCCO2	-10	-2.5%	nt	13%	4%	nt	2
CC(O)(CS(=O)(=O)c1ccc(Br)cc1)c1ccccc1 (stereo not given)	5	-0.3%	1.1	-4%	-2%	3%	?
O=C(Nc1nnc(-c2ccccc2Cl)s1)C1CCN(S(=O)(=O)c2ccc(Cl)cc2)CC1	34	-12%	-2.9	-9%	10%	28%	-2
COc1ccccc1-c1nc(SCC(=O)Nc2ccccc2)n[nH]1	0	-1.2%	nt	7%	-3%	5%	4
CC1(c2ccccc2)CC(C)(C)N(C(=O)c2cc([N+](=O)[O-])cc([N+](=O)[O-])c2)c2ccccc21 (stereo not given)	?	0.8%	-1.2	-28%	8%	2%	-5
C=CCN1C(=O)c2ccc(C(=O)N(C)CC(=O)Nc3c(C)cccc3C)cc2C1=O	2	-2.9%	nt	1%	5%	nt	11
COc1ccc(NC(=O)c2ccc(=O)oc2)cc1	11	-1.4%	-0.4	-31%[inhibitor]	-5%	10%	5
CCOC(=O)NC(c1cccc(Cl)c1)C1CCCCCC1=O (stereo not given)	1	0.3%	-1.6	-33%[inhibitor]	-12%	8%	9
CCC(CC)C(=O)Nc1cccc(S(=O)(=O)c2cccc(NC(=O)C(CC)CC)c2)c1	-5	28%	-0.9	25%	15%	32%[activator]	27
COc1ccc(C(C(=O)NC2CCCC2)N(C(=O)c2snc(C(N)=O)c2N)C2CCCC2)cc1OC (stereo not given)	0	-11%	nt	-59%[inhibitor]	1%	-4%	1
Nc1ccc2c(c1)C(=O)c1cc(N)c(Cl)cc1-2	-25	nt	nt	27%	-11%	nt	nt
CC1(C)Cc2c(cnn2-c2cccc(F)c2)C(NC(=O)c2ccc(=O)[nH]n2)C1 (stereo not given)	nt	0.2%	nt	-14%	0%	9%	-8
CCC(=O)Nc1ccc(NC(=O)c2oc3ccccc3c2C)cc1	nt	-2.9%	0.0	?	3%	15%	-12
CC(=O)Nc1ccc(C(=O)n2cnc3cc(C)c(C)cc32)cc1	4	0.6%	0.4	9%	-10%[15.4 µM]	9%	3
CN1CCN(C(=O)CN2C(=O)CC(C)(C)S(=O)(=O)c3ccccc32)CC1	4	0.5%	2.5	-23%	0%	8%	2
COc1ccc(NC(=O)CSc2nnc3n2CCCCC3)cc1S(=O)(=O)N1CCOCC1	nt	0.6%	nt	-54%[inhibitor]	2%	nt	-6
Cc1nc2sc3c(c2c(=O)n1/N=C/c1ccco1)CCCC3	6	1.6%	1.3	-36%[inhibitor]	4%	-3%	19
COc1ncnc2c1ncn2CCCN1CCN(Cc2cccc3ccccc23)CC1	-17	-0.5%	nt	8%	nt	nt	nt
COCc1nnc(NC(=O)C2CC(=O)N(CCc3ccc(F)cc3)C2)s1 (stereo not given)	-2	nt	0.1	6%	5%	?	-2
CC(=O)NC(=S)Nc1ccccc1C(=O)NC1CCCCC1	3	1.5%	nt	-1%	15%	-8%	-1
O=C(CN1CCN(Cc2ccc(Cl)cc2)CC1)N/N=C/c1cccc(F)c1	-4	nt	-5.6	-12%[15.4 µM]	4%	-13%	-2
CCOc1ccc(N2C(=O)CC(N(CCc3ccc(OC)c(OC)c3)C(=O)/C=C/C(=O)O)C2=O)cc1 (stereo not given)	3	0.6%	0.2	-32%[inhibitor]	14%	-5%	-3
O=C(Cn1c2[n+](c3ccc(C(F)(F)F)cc31)CCCCC2)Nc1ccc(Br)cc1	7	nt	1.5	-5%[15.4 µM]	7%	?	3
COc1ccccc1/C=N/NC(=O)CC(=O)NCc1ccccc1	2	nt	?	-2%[15.4 µM]	-4%	11%	-5
Cc1cc(C)n(C(C)CC(=O)Nc2ccc3c(c2)OCCO3)n1 (stereo not given)	nt	0.8%	-4.5	19%	-14%	0%	-1
O=S(=O)(Nc1cccc(S(=O)(=O)N2CCCC2)c1)c1cccs1	-7	1.7%	nt	3%[15.4 µM]	?	nt	nt
Cc1cc(C)c(C#N)c(SCC(=O)CC(=O)OC(C)C)n1	-7	449%	1.1	13%	-6%	1%	1
CC1CCCCC12NC(=O)N(CC(=O)OCC(=O)N(C)C1CCCCC1)C2=O (stereo not given)	-13	-0.1%	nt	15%	10%	nt	-15
Cc1cccc(OCC(=O)OCC(=O)N2CCN(C(=O)c3ccco3)CC2)c1C	5	0.1%	nt	-6%	-3%	nt	nt
COc1ccc(CCNC(=O)COC(=O)C23CC4CC(CC(Br)(C4)C2)C3)cc1	-17	2.1%	4.9	2%	1%	5%	-15
CCCCNC(=O)Cn1nc([N+](=O)[O-])c([N+](=O)[O-])c1C	-1	-1.8%	-1.1	8%	-16%	9%	0
CC(C)(CN1CCc2ccccc2C1)NS(=O)(=O)c1ccc(Cl)cc1	9	nt	1.4	6%[15.4 µM]	0%	-5%	0
CC(C)=C1C2CCC1C1C(=O)N(NC(=O)COc3ccc(C(C)(C)C)cc3)C(=O)C21 (stereo not given)	0	1.1%	0.3	?	-26%	15%	?
COc1ccc(C(CNC(=O)c2cc3ccccc3cc2OC)N2CCCC2)cc1 (stereo not given)	-10	?	5.9	-37%[inhibitor]	-6%	-3%	-10
CCCSc1nc(O)c(C2OC(=O)c3c2ccc(OC)c3OC)c(=O)n1C (stereo not given)	0	-0.1%	-1.2	0%	-1%	-11%	5
O=C(O)c1ccccc1SCC(=O)N1CCOCC1	4	nt	-1.0	2%	-1%	23%	5
COc1ccc(C(=O)Nc2ccccc2N2CCN(C(=O)c3ccccc3)CC2)cc1Br	-10	?	nt	29%	?	0%	8
COc1ccc(OC)c(CNCCNC(=O)c2ccco2)c1	nt	nt	6.7	nt	nt	-29%	-7
N/C(=N\OC(=O)c1cccc(Cl)c1)c1cccnc1	7	0.7%	-1.0	?	-12%	-8%	11
O=C(COC(=O)C1CC2CCCC(C1)C2=O)NC(=O)c1ccccc1 (stereo not given)	nt	0.8%	nt	25%	10%	nt	-21
CCC(=O)N1CCc2cc(Br)cc(S(=O)(=O)CCC(=O)N(CC)CC)c21	4	nt	0.3	12%	-3%	13%	-3
CCOc1cccc(C(=O)NNC(=O)CCC(=O)O)c1	4	-4.3%	8.5	-20%	10%	5%	1
Cc1cc2nc[nH]c(=O)n2n1	-6	1.7%	nt	21%	nt	nt	nt
CC(C)CCN1CC(C(=O)N2CCN(c3ccc(F)cc3)CC2)CC1=O (stereo not given)	10	?	-0.4	-4%	4%	14%	-1
O=C(NCCS(=O)(=O)N1CCN(c2ccccc2)CC1)C1CCCC1	-2	nt	nt	-11%[15.4 µM]	7%	nt	-2
O=C(O)/C(=C\c1ccc(C(F)(F)F)cc1)c1ccc(S(=O)(=O)N2CCCC2)s1	-1	-2.2%	nt	-1%	-1%	nt	-8
O=C(NCCc1ccccc1)C1CCN(S(=O)(=O)N2CCCC2)CC1	13	0.4%	-1.4	?	4%	11%	-11
CCOc1ccc(C(C)NC(=O)c2cccc(F)c2)cc1 (stereo not given)	-2	-24%	1.6	-52%[inhibitor]	0%	17%	1
Cc1csc(NC(=O)CCCC(=O)c2ccccc2)n1	5	1.1%	-0.4	-8%[15.4 µM]	-13%	5%	-9
O=C(COC(=O)CNS(=O)(=O)c1ccc(F)c(F)c1F)Nc1ccc(OC(F)F)cc1	-5	1.2%	2.2	-34%[inhibitor]	-3%	15%	10
COc1ccc(NS(=O)(=O)c2ccc3c(c2)CCC(=O)N3)cc1O	0	nt	nt	31%[15.4 µM]	5%	nt	-17
CC(=O)c1cc(-c2ccccc2)[nH]c1N1CCCC1	5	-1.2%	-9.4	18%	14%	12%	-1
c1ccc(-n2cccc2)c(N2CCCCC2)c1	4	nt	1.3	2%[15.4 µM]	14%	18%	3

More results:
SMILES	CtBP-E1A inh	ClpP mod	Menin-MLL FL inh	gsp agonist	gsp antag	Sfp inh	TRPV1 PAM
CCN1CCN(c2oc(COc3ccc(Cl)cc3)nc2C#N)CC1	-5	-0.1%	-0.4	-18%	10%	4%	14
O=C(CSc1nnc(-c2cccnc2)n1Cc1ccco1)Nc1cccc(O)c1	-4	-3.3%	4.2	6%[15.4 µM]	11%	24%	-1
Clc1ccc(-c2nnc3sc(Cc4cccs4)nn23)c(Cl)c1	0	-0.7%	2.0	1%	12%	1%	1
O=c1[nH]c(NC2CCN(S(=O)(=O)c3ccccc3C(F)(F)F)CC2)nc2c1CCCC2	-4	-8.1%	1.5	3%[15.4 µM]	-34%	21%	-1
